Screening data as filed in PubChem BioAssay.
RN4220 kill: growth inhibition of S. aureus RN4220, primary screen, OD600. inhibition, % (concentration not given with the values). AID 1259311, 2017. 16 h. hit rate 0.33% among 330,000;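 active = z-score of -3 or lower and OD600 up to 0.18 on both plates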;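 also: plate controls were untreated cells for no effect and reference antibiotic for full effect; stock transfer was 100 nL into about 80 µL; one replicate is shown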
Mtb hypoxia inh: PubChem AID 1159583; hit rate 0.1% among 300,000; fluorescence inhibition, % (no concentration beside the values); M. tuberculosis hypoxia-regulated fluorescent reporter, fluorescence;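 active = 35 to 45% if threefold the growth effect, above 45% if 1.5-fold the growth effect; inactive = the rest, general growth blockers included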;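 also: wells of about 50 µL received 100 nL stock; 0% = vehicle wells and 100% = reference inhibitor wells; whole bacteria with a GFP reporter of the hypoxia response; strong numbers were not always called active; many hits fall short of the cut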
Autofluor counter: compound fluorescence in toxin protease inhibitor counterscreen. compound autofluorescence counterscreen, microsphere flow cytometry; active compounds read high. fluorescence intensity (no concentration beside the values). hit rate 3.1% among 360,000;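 active = at least 3 SD above the mean of all compounds, about 16000 in these data; inconclusive = too few beads counted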;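 also: 100 nL of 1 mM stock went into each well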
PrP UTR inh: inhibition of PrP 5' UTR reporter expression. cell-based PrP 5' UTR mRNA reporter, plate reader. inhibition, % (test concentration not listed). hit rate 0.35% among 340,000;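 active = every replicate at 50% or more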;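 also: 0 = median of the neutral control wells; tested in H4 reporter cells; numbers are from one replicate; inactives centre near -14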
BJeLR lethal: MLPCN primary cell-based screen for lethality selective to Ras in HRASV12 cells | inhibition, % (test concentration not listed) | BJeLR (HRASV12) viability, CellTiter-Glo ATP luminescence, 48 h; reference of the scale not given here | AID 1554, 2009 | hit rate 0.17% among 300,000;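 active = replicate mean above 50%; inconclusive = above 50% but judged a plate artefact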;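 also: 50 nL library stock added to about 25 µL; numbers are from one replicate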
Sa ugtP lethal: growth inhibition of ugtP-null S. aureus, primary screen, RN4220 ugtP deletion, OD600 | growth inhibition, % (no concentration beside the values) | 16 h; some inactives read as strong as hits | hit rate 0.54% among 330,000;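 active = z-score under -3 and OD600 up to 0.15 on both plates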;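 also: plate controls were untreated wells for no effect and antibiotic for full effect; wells of about 80 µL received 100 nL stock; the first replicate is given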
Mtb hypoxia inh growth: second read-out of Mtb hypoxia inh, no call of its own (marks repeat the call); growth inhibition, %; measured here: M. tuberculosis growth (absorbance);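 0% = vehicle and 100% = reference antibiotic; read after six days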
An asterisk follows results filed as active; ? = inconclusive; . = not tested or not shown.

entry	SMILES	RN4220 kill	Mtb hypoxia inh	Mtb hypoxia inh growth	Autofluor counter
1	CC(=O)NC1C(=O)N(Cc2ccccc2)c2ccc(Br)cc21 (configuration not stated)	9.3	12	14	4781
2	COC(=O)C(Cc1ccccc1)OS(N)(=O)=O (configuration not stated)	6.3	5	6	2929
3	CCOC(=O)C1CCN(c2nc3ccccc3n2CC(=O)c2ccccc2)CC1	1.1	17	12	4651
4	O=C(Nc1nc2ccccc2n1CCN1CCCC1)c1ccc(Cl)cc1	-4.6	.	.	6088
5	Cc1nc([N+](=O)[O-])c(C(=O)OCc2ccc(C#N)cc2)n1C	6.3	16	9	4223
6	CCCCn1c(N)c(N(CC)C(=O)c2ccc([N+](=O)[O-])c(C)c2)c(=O)[nH]c1=O	-1.6	-7	12	4174
7	COc1cccc(N/C(N)=N/c2nc(CSc3ccccn3)cc(=O)[nH]2)c1	7.6	9	-3	.
8	Cc1cccc(NC(=O)C(C)SCc2ccccc2)c1 (configuration not stated)	2.9	0	-4	2999
9	O=S(=O)(CCN1C=CC(C(F)(F)F)=NCC1)c1ccc(Cl)cc1Cl	0.9	-19	-12	.
10	COC(=O)c1c(SCc2ccc(C#N)cc2)nc(=O)[nH]c1C	4.5	2	-2	3969
11	CN(C)C(CNc1ccc(S(C)(=O)=O)cc1[N+](=O)[O-])Cc1ccccc1 (configuration not stated)	4.1	4	-3	4229
12	CCc1ccc(C(=O)NN=Cc2cccc3ccccc23)nc1	3.4	20	24	.
13	C=CCc1cccc(C=Nc2cc(Br)ccc2O)c1O	-1.3	9	7	8734
14	CC(C)OCCCNC(=S)Nc1ccc2nc3n(c(=O)c2c1)CCCCC3	5.3	-5	-1	3141
15	CCN(CC)S(=O)(=O)c1ccc2c(c1)c(=O)c(C(=O)NCc1ccco1)cn2C	-2.0	-2	12	4372

entry	PrP UTR inh	BJeLR lethal	Sa ugtP lethal
1	-14	-2	13
2	-20	2	-9
3	-23	4	18
4	-77	.	-2
5	-6	-21	7
6	-4	5	1
7	.	27	3
8	-16	-6	-3
9	6	6	0
10	-19	1	2
11	-6	-7	5
12	.	.	-2
13	-24	1	5
14	-26	.	5
15	-27	7	-11

Continued.
entry	SMILES	RN4220 kill	Mtb hypoxia inh	Mtb hypoxia inh growth	Autofluor counter
16	CC(OC(=O)c1cn(-c2ccccc2)nc1-c1cccnc1)C(N)=O (configuration not stated)	7.0	14	0	3197
17	CCOC(=O)N1CCN(C(=O)C2CCN(S(C)(=O)=O)CC2)CC1	1.1	5	3	10557
18	COc1ccc(CCNC(=O)CSc2nc3ccsc3c(=O)n2CC2CCC(C(=O)O)CC2)cc1OC (configuration not stated)	0.4	-5	8	6526
19	O=C(Cc1cccs1)N1CCC(c2nc3c(nnn3Cc3ccccc3)c(=O)[nH]2)CC1	-1.1	4	7	20008*
20	Cc1ccc(S(=O)(=O)Nc2nc(C)cc(-n3nc(C)cc3C)n2)cc1	3.7	-7	1	9183
21	O=C(CCSc1ccccc1)Nc1nccs1	4.4	11	9	16866*
22	CCN(CC)C(=O)Cn1cc(S(=O)(=O)Cc2cccc([N+](=O)[O-])c2)c2ccccc21	-0.5	0	4	5469
23	COc1cccc(C(=O)NCC(=O)NN=C(C)C=Cc2ccccc2)c1	-0.8	0	3	.
24	COc1cc(NC(=O)CN2C(=O)COc3ccc(S(=O)(=O)N4CCOCC4)cc32)cc(OC)c1	-1.3	9	-4	5573
25	O=C(c1cc2ccccn2n1)N1CCN(Cc2ccccc2)CC1	-10	10	10	6546
26	CN1CCN(CC(O)Cn2c3ccccc3c3ccccc32)CC1 (configuration not stated)	1.4	13	-3	4006
27	COc1cc(-c2nnc(SCC(=O)NC3CCCC3)n2C)cc(OC)c1O	.	.	.	3894
28	CC(C)C1N=C2c3ccccc3N=C(SCC(=O)NCCc3ccc(S(N)(=O)=O)cc3)N2C1=O (configuration not stated)	1.1	1	2	?
29	O=C(CNC(=O)c1ccc(Br)o1)OCC(=O)c1cccc([N+](=O)[O-])c1	4.4	12	3	3796
30	Cc1cc(OCC(=O)Nc2ccc(S(=O)(=O)N3CCN(C)CC3)cc2)ccc1Cl	-1.8	.	.	5253

entry	PrP UTR inh	BJeLR lethal	Sa ugtP lethal
16	8	30	6
17	-14	1	5
18	-20	4	-4
19	-61	-1	3
20	1	-9	-7
21	-6	-39	1
22	-1	0	-1
23	.	.	-3
24	2	-21	-2
25	32	-5	3
26	-11	-7	2
27	-25	-3	.
28	-13	-3	-1
29	-11	6	7
30	-10	-3	3

Record cards (already shown):
CCOC(=O)N1CCN(C(=O)C2CCN(S(C)(=O)=O)CC2)CC1 is entered as RN4220 kill = 1.1; Mtb hypoxia inh = 5; Mtb hypoxia inh growth = 3; Autofluor counter = 10557; PrP UTR inh = -14; BJeLR lethal = 1; Sa ugtP lethal = 5
O=C(CCSc1ccccc1)Nc1nccs1 is entered as RN4220 kill = 4.4; Mtb hypoxia inh = 11; Mtb hypoxia inh growth = 9; Autofluor counter = 16866*; PrP UTR inh = -6; BJeLR lethal = -39; Sa ugtP lethal = 1
O=C(Cc1cccs1)N1CCC(c2nc3c(nnn3Cc3ccccc3)c(=O)[nH]2)CC1 is entered as RN4220 kill = -1.1; Mtb hypoxia inh = 4; Mtb hypoxia inh growth = 7; Autofluor counter = 20008*; PrP UTR inh = -61; BJeLR lethal = -1; Sa ugtP lethal = 3

(list continues)
entry	SMILES	RN4220 kill	Mtb hypoxia inh	Mtb hypoxia inh growth	Autofluor counter
31	CC1CCN(C(=O)c2ccc(CS(=O)(=O)Cc3ccccc3)cc2)CC1	0.9	2	-3	6044
32	CC(=O)Nc1ccc(/C=C2\CCc3ccccc3C2=O)cc1	3.3	6	1	3587
33	COc1ccccc1C(=O)NC(=O)COC(=O)C1CC1	3.0	5	4	6108
34	COc1cc(CC(=O)N2C[C@H]3C[C@@H](C2)c2cccc(=O)n2C3)cc(OC)c1OC	1.4	13	13	5731
35	COC(=O)c1nc(N)sc1-c1ccc(Cl)cc1	2.7	-6	-35	2173
36	COc1ccc(NC(=S)N(Cc2cccnc2)Cc2cc3cc(OC)c(OC)cc3[nH]c2=O)cc1	2.6	15	7	5573
37	CC(=O)Nc1nnc(SCC(=O)NC(C)(C)C)s1	1.8	8	6	7950
38	Oc1ccc(/C=N/N(Cc2ccccc2)c2ccccc2)c(O)c1O	.	.	.	3511
39	Cc1ccccc1NC(=O)Cc1nc(-c2ccc3ccccc3c2)cs1	-0.1	3	0	2572
40	O=C(C[n+]1ccc(C(=O)N/N=C/c2ccc(Br)cc2)cc1)c1ccccc1	.	.	.	11318
41	O=C(NC12CC3CC(CC(C3)C1)C2)c1ccccc1O	4.1	5	4	4451
42	Cc1cc(Nc2ccc(C)c(Cl)c2)nc(N2CCOCC2)n1	-2.2	1	-1	5965
43	Cc1nnc(NS(=O)(=O)c2ccc(N=Nc3ccc(N)nc3N)cc2)s1	-2.4	12	1	2906
44	O=C(Nc1cccnc1)c1ccc(COc2cc(Cl)ccc2Cl)o1	6.4	-4	0	3230
45	CC(NC(=O)c1ccc(F)cc1)C(=O)NC1=NCCS1 (configuration not stated)	4.9	2	15	2588

entry	PrP UTR inh	BJeLR lethal	Sa ugtP lethal
31	-14	-5	3
32	-51	3	1
33	-12	-4	1
34	-16	.	0
35	-6	4	5
36	-42	2	0
37	-4	-2	3
38	-28	6	.
39	-24	-8	8
40	-11	1	.
41	5	-5	-25
42	.	2	-14
43	-12	.	1
44	-9	7	-14
45	-3	4	-2

The list goes on:
entry	SMILES	RN4220 kill	Mtb hypoxia inh	Mtb hypoxia inh growth	Autofluor counter
46	CC(C)C(NC(=O)C12CC3CC(CC(C3)C1)C2)C(=O)O (configuration not stated)	4.8	6	19	.
47	O=c1nc(N2CCCCC2)nc(Nc2ccccc2)[nH]1	4.9	11	9	10187
48	Cc1ccc(C(=O)CCC(=O)Nc2ccccc2F)cc1	5.7	8	14	3661
49	N#CCCN(C(=O)COC(=O)C1=NNC(=O)CC1)c1ccccc1	2.8	5	2	4825
50	O=C(O)c1cc2nc(-c3cccs3)cc(C(F)(F)F)n2n1	8.8	7	10	3458
51	CCN(CC)C1CCN(C(=O)c2ccc3nc(Cc4ccc(OC)cc4)oc3c2)C1 (configuration not stated)	-0.2	-5	8	5143
52	Nc1nnc(SCC(=O)Nc2cc(S(=O)(=O)N3CCOCC3)ccc2Cl)s1	-2.3	5	-4	3911
53	N#CC1=C(SCC(=O)Nc2ccc(C(=O)O)cc2)NC(=O)CC1c1ccco1 (configuration not stated)	1.7	3	11	5667
54	COc1ccc(N2CC(O)(c3ccc(C)cc3)[N+]3=C2CCCC3)cc1 (configuration not stated)	0.3	3	2	3530
55	CC(O)C1NC(=O)C(CCCCN)NC(=O)c2cc([N+](=O)[O-])cc(I)c2OCCC(C(N)=O)NC1=O (configuration not stated)	5.6	17	9	.
56	O=C(CSc1nc2ccccc2nc1SCC(=O)N1CCCCC1)N1CCCCC1	1.9	11	5	9374
57	COCCN(C(=O)COC(=O)CCCOc1ccccc1)c1c(N)n(Cc2ccccc2)c(=O)[nH]c1=O	0.7	13	2	6119
58	COc1ccc(C[C@H]2NC[C@H](O)[C@H]2OC(C)=O)cc1	.	.	.	4101
59	CCCCn1c(N)c(N(CCOC)C(=O)COC(=O)COc2cc(C)ccc2Cl)c(=O)[nH]c1=O	1.0	-2	3	6131
60	COc1ccc(C(=O)NC2CCN(S(=O)(=O)Cc3ccccc3)CC2)c(OC)c1	-0.3	3	12	3760

entry	PrP UTR inh	BJeLR lethal	Sa ugtP lethal
46	-21	7	-6
47	-12	-2	-6
48	-35	6	12
49	-7	-8	8
50	0	-1	4
51	-8	4	-2
52	-18	-1	2
53	-32	1	4
54	-20	5	10
55	.	.	4
56	-11	-6	-2
57	-3	-3	20
58	92*	82*	.
59	-18	1	5
60	1	4	-3

Additional records
entry	SMILES	RN4220 kill	Mtb hypoxia inh	Mtb hypoxia inh growth	Autofluor counter
61	CCOc1ccc(CCNC(=O)CN2C(=O)NC3(CCCCC3C)C2=O)cc1OCC (configuration not stated)	0.1	8	0	4677
62	Cc1cc(C)n(-c2ccc(F)cc2)c(=O)c1C#N	0.2	16	10	2597
63	COc1ccc(-c2c(-c3ccc(OC)nc3)c3ccccc3n2C)cc1	-21	0	6	3536
64	COc1ccc(NC(=O)CCOc2ccc(C)cc2)cc1S(=O)(=O)N1CCCCC1	0.3	-10	-4	8765
65	O=C1c2ccccc2C(=O)N1CCCc1cn(C[C@H]2CC[C@@H]([C@@H]3CC[C@H](Cn4cc(CCCN5C(=O)c6ccccc6C5=O)nn4)O3)O2)nn1	.	.	.	3989

entry	PrP UTR inh	BJeLR lethal	Sa ugtP lethal
61	0	-3	2
62	-12	-2	9
63	-17	.	19
64	-10	.	-1
65	-26	-11	.
